Bfl-1 A1 inh – inhibitors of the anti-apoptotic protein A1, read as caspase activation | caspase activation, % (concentration not given with the values) | MEF A1-2A-BIM cells, Caspase-Glo 3/7 luminescence, 3 h; percent of clofoctol response, vehicle zero | 330,000 tested, 0.066% active;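 active means over half of replicate activation scores above 10%, or exactly half above 10 with the replicate mean above 10; inconclusive means replicate mean below 10 yet half the replicates above 10; inactive means over half of replicates below 10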;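 further: wells of about 30 µL received 50 nL stock; many hits fall short of the cut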
Vif TR-FRET – HIV-1 Vif–A3G interaction blockers – biochemical, TR-FRET, GST-Vif 1-94, biotin-A3G peptide, dose response retest, primary screen (AID 1117319); TR-FRET GST-Vif / biotin-A3G peptide binding; higher % means a stronger effect; test concentration not given here; strong numbers were not always called active; inhibition, %, or IC50 in µM where a hit was titrated; 260,000 tested, 0.57% active;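 active means above the screen mean plus three standard deviations and confirmed in dose response; inconclusive means results disagree or hit not tested in dose response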;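 further: Vif residues 1-94 fused to GST binding biotinylated APOBEC3G peptide 110-148; 0% = full assay without inhibitor and 100% = GST in place of GST-Vif; retest series ran down from 100 µM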
Beta2AR agonist – agonists of human beta-2 adrenergic receptor inducing internalization. Am2.2-beta2AR cells, FAP receptor internalization, flow cytometry; reference of the scale not given here. response, % (no concentration beside the values). P07550. 340,000 tested, 0.43% active;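 active means response above a set limit, near 3 SD of response in nonfluorescent compounds, cut at about 42% in these data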;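 further: stock transfer was 100 nL into about 11 µL; a reference agonist was the positive control; negative values mostly stem from fluorescent compounds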
HNF4A DNA FP – change in binding of human HNF4 alpha to DNA; 360,000 tested, 0.3% active; P41235; HNF4a-FITC DNA binding, fluorescence polarization, 1 h; activity change, % at 10 µM; in the data active means activity change above about 30%, passing the limit was not always enough;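 further: controls were the assay level and a saturating level of protein; the project sought stronger binding though the title names inhibitors; some compounds called inactive have numbers as strong as hits; positive values seem to mean higher polarization but the record does not say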
UCH37 inh – blocks the human deubiquitinase UCH37; Q9Y5K5; 330,000 tested, 0.33% active; purified proteasome/UCH37, Ub-AMC cleavage fluorescence; inhibition, % (test concentration not listed);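 active means mean of two replicates above 20%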;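 further: 0% = compound-free wells with enzyme and 100% = wells lacking proteasome; stock transfer was 100 nL into about 20 µL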
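assay system = human UCH37 enzyme supplied as purified proteasome complex | amount = proteasome at 0.15 nM in the dispensed enzyme solution | schedule = 30 min compound-proteasome preincubation then 25 min substrate reaction, room temperature | measured by = fluorescence, ex 355 nm, em 460 nm | benchmarks = no-proteasome wells (full inhibition) and compound-free wells (no inhibition)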
LANA-H2B inh – blocks KSHV LANA binding to histone H2A/H2B | AID 2629 | inhibition, % (no concentration beside the values) | cell-free LANA-H2A/H2B peptide, fluorescence polarization | 320,000 tested, 0.6% active | Q9QR71; in the data active means inhibition mostly above about 10%, no sharp cut-off; inactive means mostly below about 6.7%;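 further: stock transfer was 7.5 nL into about 10 µL; 0% = median of vehicle wells and 100% = median of positive control wells; one replicate is shown; the record names a cut of 25% in any replicate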
Target sequence (Q9QR71 whole entry, looked up): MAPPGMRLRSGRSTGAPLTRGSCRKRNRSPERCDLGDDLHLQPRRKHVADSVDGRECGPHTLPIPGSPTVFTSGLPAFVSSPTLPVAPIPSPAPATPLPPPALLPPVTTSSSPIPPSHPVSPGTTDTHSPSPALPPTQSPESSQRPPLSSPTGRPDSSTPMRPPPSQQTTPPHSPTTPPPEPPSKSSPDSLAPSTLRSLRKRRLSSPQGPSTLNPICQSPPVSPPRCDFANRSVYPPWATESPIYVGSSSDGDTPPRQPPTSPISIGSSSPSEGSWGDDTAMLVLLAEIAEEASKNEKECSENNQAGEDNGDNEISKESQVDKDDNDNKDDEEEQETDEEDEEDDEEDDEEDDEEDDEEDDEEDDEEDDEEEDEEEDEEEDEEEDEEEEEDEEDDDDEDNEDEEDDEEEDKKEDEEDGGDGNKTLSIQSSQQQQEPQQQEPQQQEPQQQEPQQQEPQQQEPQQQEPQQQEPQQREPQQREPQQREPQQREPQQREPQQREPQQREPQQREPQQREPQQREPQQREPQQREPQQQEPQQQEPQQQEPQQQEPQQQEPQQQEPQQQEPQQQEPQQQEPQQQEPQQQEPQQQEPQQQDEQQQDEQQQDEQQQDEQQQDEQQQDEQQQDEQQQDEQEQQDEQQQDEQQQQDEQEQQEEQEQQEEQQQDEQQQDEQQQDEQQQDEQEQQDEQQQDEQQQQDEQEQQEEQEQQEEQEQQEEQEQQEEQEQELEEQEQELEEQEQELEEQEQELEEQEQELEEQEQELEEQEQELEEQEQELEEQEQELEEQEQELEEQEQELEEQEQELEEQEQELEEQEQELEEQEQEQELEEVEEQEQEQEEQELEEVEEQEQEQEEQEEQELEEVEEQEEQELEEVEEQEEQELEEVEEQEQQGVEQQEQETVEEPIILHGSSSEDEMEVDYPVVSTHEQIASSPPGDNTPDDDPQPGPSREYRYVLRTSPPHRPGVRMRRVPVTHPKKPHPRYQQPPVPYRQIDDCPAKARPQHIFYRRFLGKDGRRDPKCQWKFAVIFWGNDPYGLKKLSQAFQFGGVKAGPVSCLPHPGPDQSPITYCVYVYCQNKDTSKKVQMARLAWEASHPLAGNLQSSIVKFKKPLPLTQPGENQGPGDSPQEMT
E coli growth – inhibitors of Escherichia coli growth. OD600, 23 h; active compounds read low. OD600 absorbance (concentration not given with the values). 330,000 tested, 0.21% active;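 active means OD600 absorbance below the run mean of sample wells minus 3.6 SD, in any replicate, cut at about 0.56 in these data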;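 further: stock transfer was 300 nL into about 60 µL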
* hit, by the source's call; ? = inconclusive; . = no result given.

SMILES	Bfl-1 A1 inh	Vif TR-FRET	Beta2AR agonist	HNF4A DNA FP	UCH37 inh	LANA-H2B inh	E coli growth
CC(C)(C)c1ccc(C(=O)c2c[nH]c(C(=O)NCCCn3ccnc3)c2)cc1	-0.3	-4%	7	0.6	3.3	-3.8	0.71
C#Cc1cccc(NC(=O)Cc2cccs2)c1	0.3	.	-3	3.7	-2.4	-0.4	0.67
CCCCCn1c(=O)[nH]c2cc(C(=O)N3CCN(c4ccc(C(C)=O)cc4)CC3)ccc2c1=O	-0.1	.	8	-1.6	-5.4	0.6	0.65
O=C(NCCSCc1ccco1)Nc1ccc(Cl)cc1	-0.4	-5%	-12	1.8	2.0	-4.2	0.7
CC1=C(C(=O)Nc2ccccn2)C(c2ccc(Br)cc2)NC(=S)N1 (stereo unspecified)	0.1	2%	-9	1.9	1.7	4.9	0.7
NC(=O)c1ccc(Nc2ccc3c(c2)CCC3)c([N+](=O)[O-])c1	0.9	.	-1	5.2	3.1	2.5	0.62
COC(=O)c1ccc(OC)cc1OCC(=O)N1CCN(c2ccc(F)cc2)CC1	0.6	-9%	3	4.1	4.3	5.7	0.69
CCCCN1CC(=O)N2[C@H]3c4cc(C)ccc4OC[C@@H]3[C@H](c3ccccc3)[C@]2(C)C1=O	0.5	.	-14	-13	-1.4	3.4	.
COc1cc(OC)c2c(OC)cccc2n1	1.4	-5%	20	2.8	-9.8	-2.5	0.65
COc1ccc(-c2n[nH]c(=S)n2-c2ccc3c(c2)OCCO3)cc1	-0.4	18%	-3	-0.2	0.3	-3.3	0.67
COc1ccc(NC(C)C(=O)Nc2cc(C(F)(F)F)ccc2N2CCOCC2)c(OC)c1 (stereo unspecified)	0.2	4%	1	0.5	3.7	-0.6	0.7
Nc1nc(CN2CCN(c3ccccc3)CC2)nc(N2CCCc3ccccc32)n1	.	9%	0	3.1	3.7	2.5	0.72
C/C(=N\NC(=O)CNC(=O)c1ccc2c(c1)OCCO2)c1ccco1	0.2	5%	8	-0.8	.	-0.8	.
O=C1CCN(Cc2ccc(Br)cc2)CCN1[C@H](CO)Cc1ccccc1	0.0	.	-5	-0.7	3.6	1.8	.
O=C(NC1CCCCC1)c1cccnc1C(=O)O	0.0	6%	-1	0.6	3.3	-4.3	0.66
CN(C)S(=O)(=O)c1ccc(N2CCCC2)c(C(=O)NCc2ccc(Cl)cc2)c1	0.7	27%	-8	6.7	-1.7	-0.9	0.7
O=C(c1ccccc1)N1CCC(c2nc3c(nnn3Cc3ccccc3Cl)c(=O)[nH]2)CC1	1.3	6%	-13	-1.5	1.5	2.4	0.7
O=CNCc1nc2ccccc2n1CCCc1ccccc1	-1.4	-7%	-1	2.9	-1.7	0.5	0.63
O=S(=O)(/N=C(/Nc1cccc2ccccc12)c1ccccc1)c1ccc(Br)cc1	1.7	3%	-12	0.8	2.7	3.8	0.71
O=C(COC(=O)CCc1c[nH]c(=O)[nH]1)Nc1cccc(Cl)c1	0.9	2%	-7	1.3	-1.9	2.5	0.71
Clc1ccc(C#Cc2cccnc2)cc1	-3.8	.	2	-1.6	-0.4	-0.5	0.67
CCOC(=O)c1cn(CC(=O)Nc2cccc(F)c2)nn1	-0.6	2%	0	0.5	-1.1	-4.5	0.7
O=C(Nc1ccc(F)cc1)N1CCN(c2ncccn2)CC1	-1.1	.	3	1.9	-1.1	1.6	0.68
Cc1ccc(C)c(NC(=O)N2CCc3ccccc3C2)c1	0.9	0%	-4	0.0	0.6	9.5	0.69
COc1cccc(Oc2ccc(S(=O)(=O)N3CCCC3)cc2[N+](=O)[O-])c1	0.0	.	-2	1.0	.	-3.7	.
COc1ccc(N2CCN(C(=O)c3sc4ncn(CC(=O)N5CCCCC5C)c(=O)c4c3C)CC2)cc1 (stereo unspecified)	0.4	.	-8	2.6	0.1	-1.0	0.65
Cc1ccc(C2=NS(=O)(=O)N(C)C(C(=O)NCc3ccc4c(c3)OCO4)=C2)cc1	-0.5	.	-8	-1.8	5.5	-1.3	0.7
Cc1cc(C)n(-c2nc3ccccc3nc2N2CCCC2)n1	0.3	1%	8	1.5	0.2	1.8	0.74
CCCC(C(=O)NC1CCCC1)N(C(=O)Cn1nnc(-c2ccc(C)o2)n1)c1ccccc1F (stereo unspecified)	.	.	-10	-0.8	1.4	.	0.64
COCCNc1nc(-c2ccccc2)nc2c1oc1ccccc12	0.3	14%	-5	-2.4	6.5	-1.6	0.71
CCCNC(=O)c1cccc(COCC(F)(F)C(F)F)c1	0.9	1%	-2	0.1	2.5	7.6	0.67
C=CCCC(=O)Nc1nc(C)c(-c2csc(Nc3cc(Cl)ccc3OC)n2)s1	0.0	-2%	3	3.9	-2.8	-0.9	0.71
CCN(c1ccccc1)S(=O)(=O)c1nnc(NC(=O)c2ccco2)s1	0.4	.	16	-0.4	7.4	-5.6	0.79
CCC(C(=O)NC1CCCC1)n1c(SCc2cccc(C)c2)nc2ccncc21 (stereo unspecified)	1.0	-4%	-10	-0.8	1.5	-2.8	0.69
Cc1c(C#N)sc2nc(-c3ccccc3)nc(N3CCCC3)c12	-0.6	3%	-7	5.7	-147	-3.6	0.8
COC(=O)c1ccc(C2NC(=O)NC(C)=C2C(=O)N(C)C)cc1 (stereo unspecified)	0.0	2%	-4	1.9	-1.5	-1.0	0.75
O=C(CSc1n[nH]c(=O)n1C1CC1)Nc1ccc(OC(F)(F)F)cc1	-0.1	-5%	4	-0.5	1.5	-6.6	0.69
COc1cc(C(=C(CC(=O)O)C(=O)O)c2ccc3c(c2)OCO3)cc(OC)c1OC	.	0%	-5	1.5	.	.	.
CCCOc1ccc(/C=N/Nc2cccc([N+](=O)[O-])c2)c(O)c1	-2.0	-4%	7	0.3	.	1.6	.
Cc1cc(OCCN2CCCC2)ccc1C(C)C	0.2	?	10	-1.7	1.4	-2.3	0.68
CNS(=O)(=O)c1ccc(NC(=O)c2ccccn2)cc1	-0.9	-6%	-2	0.5	1.4	-4.5	0.68
CCOc1ccccc1NC(=O)Cc1coc2ccc(C)cc12	-0.1	14%	-3	1.4	0.7	-384	0.7
Cc1cccc(CCNS(=O)(=O)c2ccc(S(=O)(=O)N3CCC(C)CC3)cc2)c1	0.1	-5%	1	0.4	2.7	-0.1	0.76
O=C(CCCOc1ccc(Br)cc1)Nc1nnc(C2CC2)s1	0.4	-5%	0	-0.3	0.6	.	0.69
Cc1ccc(/C=N/c2sc(Cc3ccccc3)c(C)c2C(N)=O)o1	-0.3	20%	5	27	.	1.8	.
c1ccc(-c2csc3ncnc(NCC4COc5ccccc5O4)c23)cc1 (stereo unspecified)	-1.1	.	-9	-2.9	-2.2	2.7	0.76
O=C(CSc1nnc(NC2CC2)s1)c1ccc[nH]1	-0.3	6%	-8	0.7	5.2	10	0.7
Cc1c(Cl)c(-c2n[nH]c(=S)n2-c2ccc(F)cc2)nn1C	-0.6	-9%	-4	-1.4	-0.4	-0.4	0.69
Nn1cnc2scc(-c3ccco3)c2c1=O	-0.7	.	9	1.0	-1.0	-3.2	0.7
COc1ccc2oc(C(=O)Nc3nc(C)cs3)c(C)c2c1	-10	-16%	2	6.8	-118	73*	0.62
CC(C)c1nc(CNC(=O)CC2C(=O)NCCN2Cc2cccc(F)c2F)cs1 (stereo unspecified)	1.0	.	0	0.2	-6.1	-3.9	0.69
CCc1nnc(NS(=O)(=O)c2ccc(NC(=S)NC(=O)/C=C/c3cccs3)cc2)s1	.	-6%	-1	3.3	2.4	.	0.68
COc1cccc(NC(=O)C(OC(=O)c2ccccc2NS(=O)(=O)c2cccs2)c2ccccc2)c1 (stereo unspecified)	0.3	12%	17	4.3	-2.8	-3.3	0.68
O=C(N/N=C\c1ccc(Oc2ccccc2)cc1)c1csnn1	-6.2	1%	10	-0.8	.	3.3	.
COC(=O)c1c(NC(=O)c2ccc(C)cc2)csc1C	0.9	-3%	2	3.8	.	-4.2	.
CCOC(=O)c1cc2c(=O)n3ccccc3nc2n(CC(C)C)c1=NC(=O)c1c(-c2c(F)cccc2Cl)noc1C	-0.2	.	12	4.1	-145	-4.9	0.72
Cc1ccc(S(=O)(=O)N2CCC(=O)N(CCOCc3ccccc3)CC2)cc1	-1.0	.	5	-0.3	2.5	3.6	0.69
O=C(CSc1nn(-c2ccccc2)c(=S)s1)NC(=O)NCc1ccco1	-1.4	3%	0	3.8	5.7	-0.6	0.75
O=C(COC(=O)c1ccc(F)cc1F)Nc1cc(S(=O)(=O)N2CCOCC2)ccc1Cl	.	-1%	1	0.9	4.0	.	0.68
O=C(COc1ccccc1Br)c1ccc2c(c1)OCO2	-2.8	-7%	7	2.2	4.8	0.7	0.68

The list goes on; it opens with the 2 that closed the last part.
SMILES	Bfl-1 A1 inh	Vif TR-FRET	Beta2AR agonist	HNF4A DNA FP	UCH37 inh	LANA-H2B inh	E coli growth
O=C(COC(=O)c1ccc(F)cc1F)Nc1cc(S(=O)(=O)N2CCOCC2)ccc1Cl	.	-1%	1	0.9	4.0	.	0.68
O=C(COc1ccccc1Br)c1ccc2c(c1)OCO2	-2.8	-7%	7	2.2	4.8	0.7	0.68
O=C(CC1SC(=Nc2ccccc2)N(CCc2c[nH]c3ccccc23)C1=O)Nc1ccccc1F (stereo unspecified)	-0.9	-9%	4	6.4	3.5	2.8	0.71
C=CC[C@@H](CC(=O)N(CCO)Cc1ccccc1)C(=O)N[C@@H](C)COC(=O)[C@@H](CC=C)CC(=O)OC(C)(C)C	-0.3	.	-2	4.3	3.1	4.2	.
NC(=O)[C@H]1CC2(CC(c3cccc(NC(=O)COc4ccc(Cl)cc4)c3)=NO2)CN1C(=O)CC(c1ccccc1)c1ccccc1 (stereo partly specified)	1.2	29%	1	4.7	-0.6	-0.9	.
CCCCn1nc(NC(=O)CCC)c2cc3cc(OC)ccc3nc21	-0.2	3%	4	-3.9	-57	1.3	0.66
CN1C(=O)CC(c2ccco2)Sc2ccccc21 (stereo unspecified)	0.2	16%	6	5.1	3.2	-4.6	0.69
CCOC(=O)c1c[nH]c2c(C)cc(C)cc2c1=O	-0.1	7%	-3	4.9	2.9	2.0	0.64
CCc1c(C(=O)N/N=C/c2cccs2)nnn1-c1nonc1N	0.5	.	-13	5.7	.	2.8	.
Nc1ccc2c(c1)C(=NO)c1ccccc1-2	.	-11%	18	-0.9	.	.	.
CSc1nn2c(C)c(C)c(C)nc2c1C#N	-0.3	.	1	2.1	-5.0	-1.3	0.71
COc1cccc(CC(NC(C)=O)C(=O)NC2CCN(c3ncccc3[N+](=O)[O-])CC2)c1 (stereo unspecified)	-1.3	1%	.	.	3.1	-1.3	0.65
CCC1CCCCN1C/C=C/c1ccccc1[N+](=O)[O-] (stereo unspecified)	-1.0	2%	7	1.4	3.2	-2.0	0.71
COc1ccc(NC2=C3CCCC=C3N(c3ccc(OC)cc3)C2=O)cc1	1.3	?	3	-4.5	-4.8	-4.9	0.62
Cc1nonc1OCCN1CCN(c2ccccc2[N+](=O)[O-])CC1	-0.1	2%	-8	4.9	2.4	23*	0.67
O=C(COC(=O)/C=C/c1ccc(OC(F)F)cc1)NC1CCCC1	0.0	.	-11	5.2	-0.7	-7.0	0.71
CCOC(=O)c1cc(C(=O)NCc2ccc(Cl)cc2Cl)nn1C	0.5	.	18	-1.8	3.6	2.3	0.66
O=C(Nc1ccc(-n2cnnn2)cc1)C(c1ccccc1)c1ccccc1	1.0	23%	5	13	.	-0.4	.
O=C(c1cccnc1)N1CCN(Cc2ccc3ccccc3c2)CC1	0.4	.	7	2.2	1.0	0.8	0.67

Rows are unselected (roughly 2.1% active in at least one column).
